From PubChem BioAssay
YopH inh = blocks Yersinia enterocolitica YopH tyrosine phosphatase; inhibition, %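 (about 10 µM by stock and volumes)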; actives 0.16% (n = 140,000); fluorescence Ex485/Em525;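 active = inhibition of 50% or more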;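 also: controls were vehicle for no effect and minimum signal wells for full effect; inactives centre near -20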
RecA splice inh = inhibitors of M. tuberculosis RecA intein splicing; inhibition, %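 (about 9 µM by stock and volumes)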; P9WHJ3; actives 0.75% (n = 290,000); AID 2221; cell-free RecA intein splicing, fluorescence; in the data active = inhibition above about 30%; inconclusive = no clear call, values can overlap the other calls;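 also: 0% = vehicle wells and 100% = reference inhibitor control wells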
Target sequence (P9WHJ3 whole entry, looked up, canonical isoform): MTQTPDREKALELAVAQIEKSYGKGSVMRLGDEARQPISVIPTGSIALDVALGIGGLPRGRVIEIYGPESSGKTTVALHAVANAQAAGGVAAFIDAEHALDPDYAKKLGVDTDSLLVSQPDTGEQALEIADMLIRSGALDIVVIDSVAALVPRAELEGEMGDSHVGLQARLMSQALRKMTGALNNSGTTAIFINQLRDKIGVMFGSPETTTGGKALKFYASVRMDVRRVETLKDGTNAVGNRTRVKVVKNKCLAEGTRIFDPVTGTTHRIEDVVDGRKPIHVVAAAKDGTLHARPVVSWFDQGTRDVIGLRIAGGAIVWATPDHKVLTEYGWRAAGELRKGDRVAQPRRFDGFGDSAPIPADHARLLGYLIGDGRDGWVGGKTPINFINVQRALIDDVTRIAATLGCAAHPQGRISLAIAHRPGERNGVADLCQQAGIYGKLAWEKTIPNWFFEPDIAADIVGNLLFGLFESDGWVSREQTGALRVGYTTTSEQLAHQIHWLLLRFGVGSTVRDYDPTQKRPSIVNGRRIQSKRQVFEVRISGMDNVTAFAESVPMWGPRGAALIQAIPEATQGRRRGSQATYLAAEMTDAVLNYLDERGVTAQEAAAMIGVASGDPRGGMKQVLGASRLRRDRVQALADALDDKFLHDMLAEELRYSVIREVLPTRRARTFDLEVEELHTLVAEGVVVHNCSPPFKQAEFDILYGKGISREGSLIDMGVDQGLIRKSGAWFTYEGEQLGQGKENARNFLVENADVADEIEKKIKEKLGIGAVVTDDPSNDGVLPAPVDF
Arbovirus anti = antivirals against arbovirus infection | inhibition, % at 10 µM | arbovirus infection cell-based antiviral screen | actives 0.37% (n = 200,000);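 active = inhibition from about 30%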;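 also: bluetongue infection of BSR cells; cell survival read as ATP light after 72 h; 0% = infected wells without compound and 100% = uninfected wells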
Mtb growth = M. tuberculosis H37Rv growth inhibitors, H37Rv strain (AID 1626); M. tuberculosis H37Rv growth inhibition; higher % means a stronger effect; inhibition, % at 10 µM, or IC50 in µM where a hit was titrated; actives 0.95% (n = 220,000);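 active = confirmed in a dose series; inconclusive = inhibition above 80% but not taken into the dose series; inactive = below 80% or under 30% at every dose of the series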;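 also: bacteria incubated seven days before Alamar blue readout; 0% = bacteria only wells and 100% = bacteria with antibiotic wells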
Mtb bLac sens = beta-lactam sensitization of Mtb H37Rv. actives 0.27% (n = 330,000). M. tuberculosis H37Rv growth with meropenem, percent inhibition; hits of this screen are not shown here. AID 434955. inhibition, % at 25 µM;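 active = about 74% or more and at least 40 points above the plate without the antibiotic, then above 30% in a dose series; inconclusive = first-round hits that could not be retested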;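 also: growth measured after seven days incubation then overnight dye step; 0% = bacteria only wells and 100% = bacteria with antibiotic; twin plates without the antibiotic show which effects depend on it; some results filed as inactive read as strong as hits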
Arbovirus anti repeat = also measured in Arbovirus anti; calls as there; inhibition, %; measured here: 10K subset replicate screen; many hits read low in the repeat;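 first of two repeat runs on a subset; 0% = infected and 100% = uninfected wells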
The depositor's hits bear a star; ? = inconclusive; . = not tested or not shown; & = joins results of further samples. An excerpt. The share of hits here may be higher or lower than overall.

SMILES | YopH inh | RecA splice inh | Arbovirus anti | Mtb growth | Mtb bLac sens | others
CCCS(=O)(=O)N1CCC(C(=O)NCCCN2CCCC2=O)CC1 | -29.8 | . | -2.5 | -5.9% | -9.6
O=[N+]([O-])c1ccc2ccn(C3OCC(O)C(O)C3O)c2c1 (stereo unspecified) | . | -2.4 | 1.4 | -4.6% | -7.4
COC(=O)C1=C(C)N(c2ccc(OC)cc2)C(=O)/C1=C\c1cccs1 | -14.7 | -0.3 | 4.6 | 3.4% | -3.4
Cc1cc(C)c(S(=O)(=O)Cc2ccccc2)c(OC(C)C)n1 | . | 1.3 | . | . | -1.1
CC(C)(C)NC(=O)NC(=O)COC(=O)c1cccc(OC(F)F)c1 | . | -1.2 | 3.1 | -6.1% | 5.5
CCc1ccc(NC(=O)c2cc(S(=O)(=O)N3CCCC3)c[nH]2)cc1 | . | 4.0 | . | . | -0.6
Cc1ccc(NC(=O)c2cccc(S(=O)(=O)N3CCN(c4ccccc4)CC3)c2)nc1 | . | 3.3 | . | . | -10.4
Cc1ccc(S(=O)(=O)N(C)C)cc1NC(=O)CSc1ncc(C(F)(F)F)cc1Cl | -12.8 | 2.3 | -2.4 | -1.5% | 1.6
CC(=O)CSc1ncnc2sc3c(c12)CCC3 | . | 2.7 | 11.5 | 7.8% | -1.7
CCC1C2Cn3c(nc4ccccc43)C1N(C)O2 (stereo unspecified) | . | 7.9 | . | 0.8% | -11.1
Cc1ccc(S(=O)(=O)CCC(=O)Nc2cc(Cl)ccc2-n2cncn2)cc1 | . | -2.8 | . | . | -9.9
Cc1nnc(SCCn2c(N3CCCCC3)nc3c2c(=O)n(C)c(=O)n3C)s1 | -26.4 | 2.9 | . | -2.8% | ?
Cc1cccc(/C=N/NC(=O)c2ccncc2)n1 | . | 0.1 | . | . | 98.6
CC1(C)CC(=O)C2=C(C1)OC(N)=C(C#N)[C@@]21C(=O)N(CC(N)=O)c2ccccc21 | -45.9 | -0.9 | 0.4 | -6.8% | -14.8
C/C(=N\NC(=O)Cn1ccc(C(F)(F)F)n1)c1ccc(N2CCOCC2)cc1 | . | 0.1 | . | 4.3% | -3.1
COc1ccc([N+](=O)[O-])cc1NC(=O)CSc1ncccn1 | . | 13.5 | -2.7 | -3.4% | -3.9
COc1ccccc1Sc1ccccc1/C=N/NC(N)=O | . | 0.0 | 7.2 | -6.4% | 3.5
O=C(CN1CCN(S(=O)(=O)c2ccc(F)cc2)CC1)Nc1ccccc1F | -43.8 | -2.3 | 15.5 | -3.4% | -6.5
O=C(NCC1CCC(C(=O)O)CC1)OCc1ccccc1 (stereo unspecified) | -135.4 | -1.1 | 3.8 | . | -0.3
Cc1ccc(-n2c(=O)[nH]cc(C(=O)Nc3ccc4c(c3)OCCO4)c2=O)cc1 | -23.2 | -0.8 | 5.6 | -9.5% | ?
OCc1cn(-c2ccccc2)nc1-c1ccco1 | -23.9 | 2.4 | -2.4 | -5.8% | -0.2
COc1cccc(CC2(CO)CCCN(C(=O)c3cc[n+]([O-])cc3)C2)c1 (stereo unspecified) | . | 5.8 | 8.9 | 4.4% | 8.1
COc1ccc(CN2CCC(n3nccc3NC(=O)c3ccc4c(c3)OCO4)CC2)cc1C | . | 0.0 | . | . | -1.9
O=C(Nc1ccccn1)c1ccc(Cl)c(S(=O)(=O)N2CCCCCC2)c1 | . | 2.7 | . | . | -15.9
C#CCOC(=O)c1ccccc1C(=O)O | -23.6 | 1.1 | -6.0 | -0.6% | -6.3
Cc1ccc2cc(CCNC(=O)c3cccc([N+](=O)[O-])c3)c(=O)[nH]c2c1C | -27.3 | -4.3 | 1.8 | 1.7% | 5.4
COc1ccc(S(=O)(=O)N2CCCOC2CNC(=O)C(=O)NCc2ccco2)cc1 (stereo unspecified) | . | 0.3 | -0.1 | -3.0% | -4.9
COc1ccc(-n2nc(C(=O)NCC(=O)NC(C)C)c3ccccc3c2=O)cc1OC | . | -0.4 | . | . | -5.4
CC(=O)c1sc(NC(=O)CS(=O)(=O)c2ccc(F)cc2)nc1C | . | -2.1 | . | . | -6.2
COc1cc(OC)c(OC)cc1CN1CCC(O)CC1 | . | 3.3 | . | -11.5% | -3.1
CC(C)OC(=O)C1C2C=CC3(CN(Cc4cccs4)C(=O)C13)O2 (stereo unspecified) | 9.9 | 0.1 | 13.2 | -7.0% | -8.0
Cc1ccc(N)c(C(=O)c2ccc(Br)cc2)c1 | . | 4.5 | -8.5 | 0.4% | 4.5
CCc1cc(C=C(Cl)Cl)oc(=O)c1C | -54.6 | 2.7 | 5.9 | -1.9% | 16.9
COc1cccc(C(=O)C(C#N)=C(SC)SC)c1 | . | 20.6 | . | -0.4% | -0.7
CCCCN(C(=O)C1CC(=O)N(Cc2ccc(C)cc2)C1)c1c(N)n(CCCC)c(=O)[nH]c1=O (stereo unspecified) | . | -3.2 | . | . | 1.7
CC(C)(CSc1ncccn1)NS(=O)(=O)c1ccccc1 | . | -0.3 | 2.9 | 7.7% | -3.9
Cc1cc([N+](=O)[O-])ccc1NC(=O)c1ccco1 | . | 3.3 | -5.5 | -6.9% | -8.5
O=C(c1ccc(Cl)cc1Cl)N1CCSCC1 | . | . | . | -4.9% | 0.4
Cc1ccc2nc(C)cc(N/N=C/c3ccc(F)cc3)c2c1 | . | -0.1 | -0.4 | -8.7% | 12.5
Cc1nn(-c2ccccc2)c(Cl)c1C(=O)Nc1c(C)n(C)n(-c2ccccc2)c1=O | -38.2 | . | 6.4 | -3.3% | 3.1 | Arbovirus anti repeat=-0.4
COc1ccc(C(=O)Nc2cccnc2Cl)cc1OC | . | -3.0 | . | . | -0.1
O=C(Nc1ccc(S(=O)(=O)NC2=NCCCCC2)cc1)c1cc(S(=O)(=O)N2CCOCC2)ccc1F | . | -1.1 | . | . | -6.0
COc1ccc(-c2nc(CN3CCC(C(=O)NC4CCN(Cc5ccccc5)CC4)CC3)c(C)o2)cc1OC | . | 0.4 | . | . | -0.3
N=C(N)c1ccccc1 | . | 3.1&-0.1 | . | -10.6%&-3.8% | -2.2&1.8
Oc1ccccc1-n1nc2ccc3nonc3c2n1 | . | 0.4 | . | -5.5% | -4.7
CC(=O)N1C(C)(C)CC(=NOC(=O)c2ccc(C)cc2)CC1(C)C | . | -0.4 | 2.7 | 6.5% | -1.8
O=C(NCCCN1CCOCC1)c1nn(-c2ccccc2)c(=O)c2ccccc12 | . | 0.5 | . | . | -4.1
Cc1ccc(N2C(=O)c3sc4nnc(C)c(=O)n4c3C2=O)cc1 | -6.7 | 1.9 | 2.6 | -3.9% | -8.1
COc1ccc(NC(=O)CC(C)C)c([N+](=O)[O-])c1 | -20.0 | -0.4 | -2.6 | . | -4.8
COc1ccc(S(=O)(=O)n2nc(OCc3cccs3)cc2N)cc1 | . | 1.5 | 1.9 | -2.8% | -18.9
O=C(Nc1ccc(Cl)cc1)c1cccnc1N1CCCCC1 | -1.2 | . | -3.9 | 5.0% | 52.4
Cc1ccc(C)c(NC(=O)CN(C)C(=O)Cn2c(=O)oc3ccccc32)c1 | . | -2.1 | . | . | 0.4
O=C(CCN1C(=O)/C(=C/c2ccc(F)cc2)SC1=S)NC1CCS(=O)(=O)C1 (stereo unspecified) | . | 4.8 | . | . | -1.4
Cc1nnc(N(C)C(=O)c2cccnc2)s1 | -25.8 | 2.0 | 2.4 | -12.2% | -6.5
C=C(C)[C@@H]1CC[C@]2(C(=O)O)CC[C@]3(C)C(CCC4[C@@]5(C)CC[C@H](O)C(C)(C)C5CC[C@]43C)C12 (stereo partly specified) | . | 18.8 | . | . | 5.5
CCOCCCNC(=O)c1c[nH]c2cc(OC)ccc2c1=O | . | 0.0 | 0.3 | -5.2% | 4.8
Cc1cc(OC(F)F)ccc1NC(=S)NC1CCCC1 | . | 0.8 | . | . | 3.4
NS(=O)(=O)c1ccc(CCNC(=O)CN2C(=O)c3ccccc3S2(=O)=O)cc1 | . | 1.0 | . | . | -7.4
Cc1[nH]n(-c2ccccc2)c(=O)c1CCO | . | -4.1 | 6.1 | -6.8% | -1.1
CC(C)Nc1nc(NC(C)C)nc(Nn2cnnc2)n1 | . | -0.6 | 2.0 | -7.2% | -6.3
Carrying on.
SMILES | YopH inh | RecA splice inh | Arbovirus anti | Mtb growth | Mtb bLac sens | others
CCOc1ccc(/C=C\C(C)=N\O)cc1 | -51.8 | -2.2 | -4.6 | -5.0% | 7.2 | Arbovirus anti repeat=-2.0
O=C(CSc1nc2ncc(Cl)cc2[nH]1)c1ccc2c(c1)OCO2 | . | -0.5 | . | -5.0% | -11.6
COc1ccc(C)cc1S(=O)(=O)Nc1ccncc1 | . | -6.4 | -1.8 | -5.9% | -5.5
N#CC(C#N)=Cc1ccc(-c2ccccc2)o1 | -38.7 | 1.7 | -1.9 | 6.5% | 1.5
CCOC(=O)C1CCCN(c2nc3ccccc3nc2C(C#N)C(=O)OC(C)COC)C1 (stereo unspecified) | -31.5 | -26.8 | -3.9 | 4.3% | -2.3
Cc1cccc(C(=O)OCc2cnc(Cl)s2)c1 | -17.4 | -0.9 | 13.3 | -4.8% | -5.4
COc1cc(C(=O)OC(C)CN2C(C)CCCC2C)cc(OC)c1OC (stereo unspecified) | . | -0.3 | . | . | 5.3
Cc1cc(OC(C)C(=O)NCc2ccncc2)c2c3c(c(=O)oc2c1)CCCC3 (stereo unspecified) | . | -0.8 | . | . | 18.2
CCOc1cc(C(=O)NC(=S)Nn2cnnc2)cc(OCC)c1OCC | . | -0.5 | -3.6 | -3.9% | 2.6
CC(=O)c1ccc(OCC(=O)N2CCCC(Nc3ccc(C)c(C)c3)C2)cc1 (stereo unspecified) | . | 2.5 | . | . | 4.0
Cc1ccc(NC(=O)CN(C)C(=O)COc2cccc3cccnc23)cc1 | -16.6 | 2.3 | -4.8 | -1.0% | 18.1
Cc1ccc2occ(C(c3nnnn3C3CCCC3)N3CCN(C(=O)c4ccco4)CC3)c(=O)c2c1 (stereo unspecified) | -27.1 | 3.9 | -8.3 | 2.0% | 14.4
COc1ccc(OCC(=O)NNC(=O)C(=O)Nc2ccc(C)cc2)cc1 | -19.5 | -2.5 | -3.8 | ? | 89.5
Cc1cc(C)n2nc(C(=O)Nc3ccc4c(c3)OCO4)nc2n1 | 4.0 | -1.6 | -26.6 | 0.1% | -8.4
Nc1nccnc1C(=O)OCc1nc2sc3c(c2c(=O)[nH]1)CCCC3 | . | -0.7 | . | . | -2.5
C/C(=N\Nc1ccc(Cl)c(C(=O)O)c1)c1ccc(N2CCOCC2)cc1 | . | -2.0 | . | . | -1.7
COc1ccc(S(=O)(=O)Nc2c(C)ccc3nsnc23)cc1OC | -23.8 | -0.2 | 0.8 | -1.9% | -6.7
COCC(=O)Nc1ccc(S(=O)(=O)N2CCCC2)cc1 | . | -1.0 | . | . | 2.9
CCCCN(C)C(=O)c1cn(CC)c2ccc(S(=O)(=O)N(C)C)cc2c1=O | . | -1.1 | 4.6 | -5.4% | -6.1
O=[N+]([O-])c1cc(-c2ccc(/C=N\n3cnnc3)o2)cc([N+](=O)[O-])c1 | . | 2.0 | . | . | 99.8
COc1ccc(C(=O)NCc2nnc(SCC(=O)Nc3ccccc3F)o2)cc1 | . | -1.2 | 2.0 | 1.6% | -0.6
Clc1ncc(CN2CCN(c3ccccc3)CC2)s1 | . | 0.2 | -5.1 | -5.0% | -1.4
CC(C)(C)NC(=O)C(c1cccs1)N(C(=O)c1csnn1)c1cccc(F)c1 (stereo unspecified) | . | 0.7 | -5.9 | -6.2% | -5.5
O=C(COC(=O)C1CC(=O)N(Cc2ccco2)C1)c1ccc(OC(=O)c2ccco2)cc1 (stereo unspecified) | 4.4 | 35.4* | -0.1 | -4.7% | -1.1
O=C(CCl)Nc1cccc(-c2cnc3ccccc3n2)c1 | -25.7 | 46.0* | -44.6 | 77.5% | 98.1
COc1cc2[nH]c3ccccc3c2cc1C | . | 2.4 | . | -4.5% | -5.3
Cc1ccc(CNC(=O)/C(C#N)=C\c2ccc(N(C)C)cc2)cc1 | -27.6 | -6.7 | -9.4 | 13.8% | 0.7
CC(C)c1ccccc1NC(=S)N1CCN(S(=O)(=O)c2cccs2)CC1 | . | -0.7 | 1.0 | 0.1% | 3.9

Pulled by structure from above (four):
SMILES | YopH inh | RecA splice inh | Arbovirus anti | Mtb growth | Mtb bLac sens | others
Clc1ncc(CN2CCN(c3ccccc3)CC2)s1 | . | 0.2 | -5.1 | -5.0% | -1.4
COc1ccc(C(=O)NCc2nnc(SCC(=O)Nc3ccccc3F)o2)cc1 | . | -1.2 | 2.0 | 1.6% | -0.6
O=C(CCl)Nc1cccc(-c2cnc3ccccc3n2)c1 | -25.7 | 46.0* | -44.6 | 77.5% | 98.1
COc1cc2[nH]c3ccccc3c2cc1C | . | 2.4 | . | -4.5% | -5.3
